Screening data (PubChem)
VDR inh: inhibitors of human vitamin D receptor; P11473; actives 0.93% (n = 400,000); VDR-SRC2-3 peptide fluorescence polarization, 2 h; Potency, µM, for inactives: max response, negative = inhibition, actives largely listed as inhibitors; active means well fitted inhibition curve with a large enough effect; inconclusive means small, poorly fitted or top-dose-only effect, or another doubt; inactive means no such curve, though single readings can be large or run the other way; further: series mostly up to about 120 µM
Target sequence (P11473 whole entry, looked up): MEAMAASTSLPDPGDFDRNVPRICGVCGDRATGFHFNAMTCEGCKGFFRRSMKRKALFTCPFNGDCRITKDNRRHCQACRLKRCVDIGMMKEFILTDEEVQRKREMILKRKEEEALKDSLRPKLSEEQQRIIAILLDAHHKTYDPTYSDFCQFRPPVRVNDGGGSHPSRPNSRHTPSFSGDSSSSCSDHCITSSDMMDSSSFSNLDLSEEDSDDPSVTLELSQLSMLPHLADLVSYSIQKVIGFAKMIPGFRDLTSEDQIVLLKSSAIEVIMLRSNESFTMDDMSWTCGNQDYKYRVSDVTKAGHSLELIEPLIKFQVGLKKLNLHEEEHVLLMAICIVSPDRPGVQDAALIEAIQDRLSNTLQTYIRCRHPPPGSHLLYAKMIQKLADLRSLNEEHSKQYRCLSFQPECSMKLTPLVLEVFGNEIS
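Fluorescence polarization assay measuring small-molecule disruption of VDR binding to the coregulator peptide SRC2-3. Compounds were pin-transferred (23 nl) into the reagent mix and incubated 2 h at room temperature before reading.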
An asterisk follows results filed as active; ? = inconclusive; & = joins results of further samples; [ ] = dose if it differs, or a comment. On the % scale 0 is the no-effect control and ±100 the full control effect; potency means the concentration at half of the fitted maximal effect. The list is partial; rates above refer to the full screens.

SMILES	VDR inh
CC(C)(C)C(=O)Nc1ccc(C(=O)Nc2cccnc2)cc1	5.0%
Cc1ccc(S(=O)(=O)N2CCC(C)CC2)cc1[N+](=O)[O-]	-11.8%
CC(=O)OCC=C1CCC2C3CC(C)C4=CC(=O)CCC4(C)C3C(O)CC12C (stereo not drawn)	-18.2%
COc1ccc(Cl)cc1NC(=O)CCCNC(=O)c1ccc(Cl)cc1	-6.1%
Cc1ncc(CO)c(CO)c1O	-25.7%&12.3%
CCc1noc(C)c1C(=O)N1CCCSC1=Nc1ccccc1OC	-10.4%
O=C(NC1CCCCC1)c1ccc2c(c1)OCCO2	11.0%
CCOC(=O)C1CCC(CN(Cc2ccccc2)S(=O)(=O)c2ccc(Br)cc2)CC1 (stereo not drawn)	0.7%
CSCCC(NC(=O)c1ccccc1)C(=O)NCCc1ccccc1 (stereo not drawn)	3.9%
NS(=O)(=O)c1ccc(NN=C2CCCCC2)c([N+](=O)[O-])c1	-16.4%
CCOc1cc(N2CCOCC2)c(OCC)cc1NC(=O)COC(=O)c1ccccc1C	-2.4%
Cc1ccc(S(=O)(=O)CCC(=O)NCCc2ccccc2)cc1	5.4%
COc1ccccc1CCn1c(N)c(C#N)c2nc3ccccc3nc21	?
CC1CCN(CCCCOc2ccc(C(C)(C)C)cc2)CC1	-13.9%
CC(C)[C@H](NC(=O)OC(C)(C)C)c1nnc(SCC(=O)Nc2ccc(Br)cc2)o1	-4.1%
COC(=O)c1sc(N2C(=O)C(=O)/C(=C(/O)c3ccc(C)cc3)C2c2ccco2)nc1C (stereo not drawn)	-8.3%
Cc1ccc(C(=O)NC(=S)NNC(=O)CCN2CCOCC2)cc1	-13.3%
COc1cccc(-c2nn(C)c3sc(C(=O)NCCCN(C)Cc4ccccc4)cc23)c1	-4.8%
CCC1=Nc2cc(C(=O)NCc3cccnc3)ccc2Sc2ccc(C)cc21	-1.9%
Cc1cc(Cl)c(S(=O)(=O)N2CCN(c3ccc(F)cc3)CC2)cc1OCC(N)=O	7.8%
Cc1ccc(CNC(=O)COC(=O)c2cnccn2)cc1	-2.5%
CC(=O)c1sc(NC(=O)c2ccco2)nc1-c1ccccc1	-12.2%
COc1ccc(C)cc1NC(=O)CN1CCN(C/C=C/c2ccccc2)CC1	-11.8%
O=C(CSc1ncnc2c1oc1ccccc12)NCc1ccc(F)cc1	-9.3%
Cc1oc(-c2cccc(Cl)c2)nc1CS(=O)(=O)CC(=O)NCc1ccccc1Cl	14.6%
FC(F)(F)c1cnc(-n2cc[nH]c2=S)c(Cl)c1	9.4%
COc1ccc(Cc2noc(-c3ccc([N+](=O)[O-])cc3)n2)cc1OC	2.2%
O=C1CC(N2CCN(c3ccc(F)cc3)CC2)C(=O)N1c1ccc(F)cc1 (stereo not drawn)	-16.5%
C#CCOCCOCCOCCNc1nc(N2CCN(C(=O)C([C@@H](C)CC)n3cc(C(N)Cc4ccc(O)cc4)nn3)CC2)nc(N2CCN(C(=O)[C@H](CCC(=O)O)n3cc(C(N)CO)nn3)CC2)n1 (stereo partly drawn)	-3.6%
COc1ccc(C(C)=O)c(Oc2cc(NN3CCCCC3)c([N+](=O)[O-])cc2[N+](=O)[O-])c1	-15.4%
O=c1oc(CCCO)cc2ccc(C#Cc3ccsc3)cc12	-6.2%
CCOC(=O)N1CCC(NC(=O)C2CCCN(Cc3nc(-c4ccc(CC)cc4)oc3C)C2)CC1 (stereo not drawn)	-19.0%
O=S(Cc1ccc(Cl)cc1)CC(O)COCc1ccc(Cl)cc1 (stereo not drawn)	37.8%[activator]
O=C1N(c2ccccc2)C[C@@H]2C[C@@H](c3cccc4c3OCO4)N3CCC[C@@]123	-15.5%
CN(CC(=O)Nc1ccc(F)cc1)C(=O)C1CC(=O)N(Cc2ccccc2)C1 (stereo not drawn)	-13.7%
COc1ccc(S(=O)(=O)NNC(=O)C23CC4CC(CC(C4)C2)C3)cc1[N+](=O)[O-]	-8.7%
Cc1nc(N2CCN(Cc3ccc4c(c3)OCO4)CC2)c2cc(-c3ccccc3)sc2n1	2.0%
Cc1ccc(S(=O)(=O)/N=C(/Nc2c(C)cccc2C)c2ccccc2)cc1	-6.0%
C[C@H](CO)N1C[C@H](C)[C@@H](CN(C)C(=O)Nc2ccc3c(c2)OCO3)Oc2ccc(NC(=O)Nc3ccc4c(c3)OCO4)cc2C1=O	-4.3%
CCOc1ccc(NC(=O)C2CCCN2S(=O)(=O)c2ccc3c(c2)C(C)(C)C(=O)N3C)cc1 (stereo not drawn)	-0.1%

An excerpt of the results above:
SMILES	VDR inh
O=S(Cc1ccc(Cl)cc1)CC(O)COCc1ccc(Cl)cc1 (stereo not drawn)	37.8%[activator]
O=C1N(c2ccccc2)C[C@@H]2C[C@@H](c3cccc4c3OCO4)N3CCC[C@@]123	-15.5%
CN(CC(=O)Nc1ccc(F)cc1)C(=O)C1CC(=O)N(Cc2ccccc2)C1 (stereo not drawn)	-13.7%
COc1ccc(S(=O)(=O)NNC(=O)C23CC4CC(CC(C4)C2)C3)cc1[N+](=O)[O-]	-8.7%

Going on with the list.
SMILES	VDR inh
Cc1cnc(CNc2ncnc3ccc(-c4cccc(C#N)c4)cc23)cn1	-8.1%
Cc1nn(CCCC(=O)Nc2cnn(Cc3ccc(F)cc3)c2)c(C)c1[N+](=O)[O-]	-4.9%
O=S(=O)(NCCc1ccccn1)c1cccs1	9.8%
CC(C)CNS(=O)(=O)c1cc(C(=O)OCC(=O)N2CCOCC2)c(Cl)cc1Cl	-1.5%
Cc1ccc(Cl)cc1Nc1nn2c(=O)c3ccc(C(=O)N4CCCC(C)C4)cc3nc2s1 (stereo not drawn)	14.0%
Cc1ccc(CN=Cc2[nH]c3ccc(Br)c(Cl)c3c2O)cc1	-1.1%
CCN1C(=O)C(CC(=O)Nc2ccc(C)cc2C)Nc2cc(S(=O)(=O)N(C)C)ccc21 (stereo not drawn)	0.2%
Cc1cccn2c(=O)c(C=O)c(N3CCCCC3)nc12	-1.1%
COc1cc(C2C(C(=O)Nc3ccccc3)=C(C)Nc3nnnn32)cc(OC)c1OC (stereo not drawn)	-6.2%
CCCCOC(=O)C(C)Sc1n[nH]c(=O)[nH]c1=O (stereo not drawn)	-18.1%

A different layout for part of the listing above.
VDR inh | compound
9.8% | O=S(=O)(NCCc1ccccn1)c1cccs1
-1.5% | CC(C)CNS(=O)(=O)c1cc(C(=O)OCC(=O)N2CCOCC2)c(Cl)cc1Cl
14.0% | Cc1ccc(Cl)cc1Nc1nn2c(=O)c3ccc(C(=O)N4CCCC(C)C4)cc3nc2s1 (stereo not drawn)
-1.1% | Cc1ccc(CN=Cc2[nH]c3ccc(Br)c(Cl)c3c2O)cc1

(list continues)
SMILES	VDR inh
COc1cccc(C2N(c3ccccc3)CCN2c2ccccc2)c1OC	-0.4%
CC(NC(=O)COC(=O)c1ccc([N+](=O)[O-])s1)c1ccccc1 (stereo not drawn)	0.2%
CCC(OC(=O)c1cccs1)C(=O)NCc1ccc2c(c1)OCO2 (stereo not drawn)	-5.8%
Cc1cc(NS(=O)(=O)c2ccccc2)cc(Cl)c1O	-6.2%
CCOc1ccc(-c2nn(-c3ccccc3)cc2/C=C2\SC(=S)N(C3CCS(=O)(=O)C3)C2=O)cc1 (stereo not drawn)	-26.3%
COc1cccc2c1OCC(C(=O)NCc1ccc(Cl)cc1Cl)=C2	-0.9%
COc1ccc(/C=N/Nc2cc(N3CCCC3)nc(N3CCCC3)n2)cc1	?
Cc1ccc(C)c(NC(=O)Cn2nc(-c3ccccc3)nc2-c2ccccc2)c1	-18.1%
Cc1oc(-c2ccccc2F)nc1CN1CCC(C(=O)NCc2cccnc2)CC1	9.8%
Cc1cccc(C(=O)NNS(=O)(=O)c2ccccc2)c1O	2.8%

Overlap with the part before: 4 compounds, then new ones.
SMILES	VDR inh
COc1ccc(/C=N/Nc2cc(N3CCCC3)nc(N3CCCC3)n2)cc1	?
Cc1ccc(C)c(NC(=O)Cn2nc(-c3ccccc3)nc2-c2ccccc2)c1	-18.1%
Cc1oc(-c2ccccc2F)nc1CN1CCC(C(=O)NCc2cccnc2)CC1	9.8%
Cc1cccc(C(=O)NNS(=O)(=O)c2ccccc2)c1O	2.8%
CCCN1CCN(C(=S)Nc2ccc(SC(F)F)cc2)CC1	22.8%
CCOC(=O)c1c(NC(=O)Cn2cnc3scc(-c4ccc(C)cc4)c3c2=O)sc(C)c1C	11.7%
Cn1c(=O)c2c(nc(NCCO)n2CCc2ccccc2)n(C)c1=O	-4.2%
COC(=O)C1=C(C(=O)OC)[C@@H]2N(C)c3ccc(OC)cc3[C@@]23C[C@@H](C(=O)OC)N(C(=O)NC2CCCCC2)C3=N1	-16.6%
CCCN1CCN(CCCNC(=O)Cn2nc(-c3ccc(C)cc3)ccc2=O)CC1	-2.1%
COc1ccc(CCNC(=O)COC(=O)c2cc(S(=O)(=O)N3CCCC3)ccc2O)cc1	-5.7%
O=C(CCCCn1c(=O)c2ccccc2n(CC(=O)Nc2cccc(F)c2)c1=O)NCc1ccccc1Cl	1.9%
O=C(O)/C=C/c1cnc2ccccc2c1	11.4%
CCc1nnc(NC(=O)COc2ccc([N+](=O)[O-])cc2)s1	21.0%
O=C(COc1ncnc2ccc(Br)cc12)NCc1ccc2c(c1)OCO2	13.2%
NN=C(c1cccc([N+](=O)[O-])c1)c1cccc([N+](=O)[O-])c1	-18.3%
CN1C(=O)/C(=N\OC(=O)c2cccc3ccccc23)c2ccccc21	-43.4%
CCCCC(=O)OCC(=O)[C@]1(O)Cc2c(O)c3c(c(O)c2[C@H](OC2CC(NC(=O)C(F)(F)F)C(O)C(C)O2)C1)C(=O)c1c(OC)cccc1C3=O (stereo partly drawn)	?
Cc1ccccc1CN1CCN(C(=O)c2cc(-c3ccncc3)nc3ccccc23)CC1	-25.5%
Fc1ccc(-n2cc(CNCCc3ccccn3)c(-c3ccccc3Cl)n2)cc1	-3.9%
O=C(NC1CC1)c1cc(-c2ccco2)nc2ccccc12	-11.3%
Cc1ccc(-n2ncc3c(N4CCCCCC4)ncnc32)cc1C	-3.6%
CS(=O)(=O)Nc1ccc(C(=O)NCc2ccc3c(c2)OCO3)cc1	15.7%
Cc1ccc(-c2csc3nc(-c4ccncc4)[nH]c(=O)c23)cc1	-8.2%
COC(=O)COc1ccc(S(=O)(=O)NCc2ccccn2)cc1	0.8%

Some of the entries so far, with the structure last.
VDR inh | SMILES
-4.1% | CC(C)[C@H](NC(=O)OC(C)(C)C)c1nnc(SCC(=O)Nc2ccc(Br)cc2)o1
-8.3% | COC(=O)c1sc(N2C(=O)C(=O)/C(=C(/O)c3ccc(C)cc3)C2c2ccco2)nc1C (stereo not drawn)

The results go on:
SMILES	VDR inh
COc1ccc(Nc2nc(C)cc(C)c2C(N)=O)cc1	8.5%
CC1CCc2c(sc(NC(=O)COC(=O)c3ccc(O)cc3)c2C#N)C1 (stereo not drawn)	-3.9%
COCCNC(=O)CNC(=S)N(CCCN1CCOCC1)Cc1cccs1	-1.6%
CCn1c(CCCOc2ccc(Cl)cc2Cl)n[nH]c1=S	-17.5%
COC(=O)c1ccc(COC(=O)Cc2n[nH]c(=O)c3ccccc23)cc1	2.2%
CCCCN(C(=O)CCC(=O)Nc1cc(C)on1)C(C(=O)NC1CCCC1)c1ccc(OC)cc1 (stereo not drawn)	-22.8%
COc1ccc(Cl)cc1NC(=O)CSc1nc2c([nH]c3ccccc32)c(=O)n1-c1ccccc1	10.0%
Oc1ccc(C(O)CNCCCCCCNCC(O)c2ccc(O)c(O)c2)cc1O (stereo not drawn)	?
NS(=O)(=O)c1ccc(NC(=O)Cc2cccs2)cc1	8.5%
Cc1noc(C)c1C(c1ccccc1)c1ccccc1	4.5%
COc1ccc(N(C(=O)c2ccc(S(=O)(=O)N3CCOCC3)cc2)C2C=CS(=O)(=O)C2)cc1 (stereo not drawn)	33.3%[activator]
Cc1nc2ncnn2c(N2CCN(C(=O)c3cccc(F)c3)CC2)c1C	10.7%
O=C(NCCc1ccccc1)c1cccc(N2CCCC2=O)c1	5.3%
CN(CCOc1ccc(Cl)cc1)C(=O)c1cc(-c2ccco2)nc2ccccc12	-5.7%
CCN(c1ccccc1)S(=O)(=O)c1ccc(C(=O)Nc2c(C)n(C)n(-c3ccccc3)c2=O)cc1	-5.4%
CCc1ccc(-c2nc3c(c(SCc4ccccc4)n2)Cc2c(CO)cnc(C)c2O3)cc1	-4.0%
CSc1nc(-c2ccccc2)nc(SC)c1C(C)=O	4.5%
CC(C)c1ccc(Nc2ncnc3onc(-c4ccc(F)cc4)c23)cc1	1.4%
COc1cc(OC)cc(C(=O)NC(=S)N2CCN(c3ccc(C(F)(F)F)cc3[N+](=O)[O-])CC2)c1	-3.6%
COc1ccc(CCN(C)C(=O)Cn2c(=O)oc3ccccc32)cc1OC	19.7%
Cc1ccc(C(=O)N2CCN(C(=O)CN3CCOCC3)C2)cc1	4.9%
CCOC(=O)c1snc(C(=O)NC2CCCCC2)c1N	8.1%
Cc1ccccc1NS(=O)(=O)c1ccc(C(=O)NN2CCCCC2)cc1	-11.1%
O=C(Cc1ccccc1)Nn1c(-c2ccccc2)nc2ccccc2c1=O	3.2%
Cc1ccsc1/C=N/NC(=O)C1CC(=O)N(c2ccccc2)C1 (stereo not drawn)	13.3%
COc1ccc(/C=C/C=C2\NC(=S)NC2=O)cc1	-8.4%
CN(C)CCNCCCNc1c2ccccc2nc2cccc([N+](=O)[O-])c12	-3.9%
O=C1Nc2ccccc2C(=O)N2CCCCC12 (stereo not drawn)	17.5%
CSc1ccccc1NC(=O)CN(C)C(=O)c1cccc(S(=O)(=O)N(C)C)c1	-3.2%
Cc1c(Cl)ccc2c1NC(=O)[C@]21N[C@@H](CCC(N)=O)[C@H]2C(=O)N(c3ccc(F)cc3)C(=O)[C@H]21	6.0%
COC(=O)N1CCC[C@@]2(CCN(C(c3ccccc3)c3ccccc3)C2)C1	?
CCOC(=O)/C(C#N)=C\c1cn(C)c2ccccc12	-15.0%
Cc1cc(SCc2ccccc2)nc(=O)[nH]1	-3.8%
O=C(C[C@@H]1C/C=C/CC[C@H](Cc2ccc(F)cc2)C(=O)OC[C@@H](Cc2ccccc2)NC1=O)N[C@H](CO)Cc1ccccc1	17.1%
